Cruzain inh noDet: blocks cruzain activity in detergent-free assay; AID 1476; Potency, µM, for the others: max response, negative = inhibition, hits mostly inhibitors; P25779; hit rate 2.3% among 200,000; purified cruzain, Z-FR-AMC fluorescence, no detergent;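 also: plate controls were enzyme without inhibitor for no effect and buffer without enzyme for full effect; nearly all actives have a fitted effect of over 40% in size; top concentration of the series not given in the record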
Target sequence (P25779 123-467 limits assumed): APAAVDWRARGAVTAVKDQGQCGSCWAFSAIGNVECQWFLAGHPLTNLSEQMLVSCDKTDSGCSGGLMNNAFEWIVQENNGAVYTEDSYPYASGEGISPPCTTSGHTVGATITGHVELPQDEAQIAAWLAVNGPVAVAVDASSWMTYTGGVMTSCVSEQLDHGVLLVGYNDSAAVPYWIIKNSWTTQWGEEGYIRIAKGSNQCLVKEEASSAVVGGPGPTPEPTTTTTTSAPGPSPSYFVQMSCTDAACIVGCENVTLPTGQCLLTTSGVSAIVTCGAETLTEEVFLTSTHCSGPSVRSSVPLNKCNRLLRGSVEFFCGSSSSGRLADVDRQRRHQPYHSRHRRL
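Purified cruzain at 1.5 nM, pre-incubated 15 min with compound at room temperature in 100 mM sodium acetate pH 5.5, 5 mM DTT, 0.00005% Triton X-100. Reaction started with 2 uM Z-FR-AMC; AMC fluorescence increase over 60 s gives rate.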
SARS PLpro yeast: inhibitors of SARS-CoV papain-like protease in yeast; S. cerevisiae expressing SARS-CoV PLpro, growth rescue; control for the full effect not named in the record; Potency, µM (highest dose often 32.9 µM), without a hit: at the highest dose activity, positive = growth rescue; AID 485353; hit rate 0.19% among 330,000; active means well fitted rising curve with a large enough effect; inconclusive means small, poorly fitted or top-dose-only effect; inactive means no such curve, though single readings can be large or run the other way; also: 0% is about no effect; nearly all actives have a fitted effect of over 55% in size; growth read by luminescence after 48 h
StopGo reporter: FMDV 2A StopGo reporter, luciferase signal. human cells with a luciferase reporter of 2A StopGo recoding; control for the full effect not named in the record. Potency, µM (doses to about 57.9 µM), for inactives: at the top dose signal change, negative = less light. hit rate 1.2% among 410,000. AID 1159524; active = well fitted falling curve with a large enough effect; inconclusive = small, poorly fitted or top-dose-only effect; inactive = no such curve, though single readings can be large or run the other way; tested in HEK293T cells; also: % is scaled to controls: 0 for no effect and ±100 for the full control effect; nearly all actives have a fitted effect of over 45% in size; luciferase light after 4 h
Lassa entry inh: Lassa virus entry inhibition. Lassa virus pseudotype entry inhibition, cell reporter; control for the full effect not named in the record. Potency, µM (highest dose often 37.9 µM), for the others: at the highest dose activity change, negative = inhibition, hits mostly inhibitors. hit rate 1.2% among 300,000. AID 540256; active means well fitted inhibition curve with a large enough effect; inconclusive means small, poorly fitted or top-dose-only effect, or effect the other way; inactive means flat fitted curve, though single readings scatter; tested in HEK293 cells; also: % is scaled to controls: 0 for no effect and ±100 for the full control effect; nearly all actives have a fitted effect of over 50% in size; luciferase read-out
NS1 function inh: inhibitors of influenza NS1 protein function; S. cerevisiae slowed by influenza A NS1, growth recovery by OD600; Potency, µM (series often up to 46.1 µM), for inactives: at the highest dose activity, positive = more growth; hit rate 0.4% among 270,000; AID 2326; active means well fitted rising curve with a large enough effect; inconclusive means small, poorly fitted or top-dose-only effect; inactive means no such curve, though single readings can be large or run the other way; also: nearly all actives have a fitted effect of over 50% in size
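Compounds were scored for reversing the slow growth caused by influenza A NS1 in S. cerevisiae, measured by optical density at 600 nm. Assay medium contained 2% galactose at pH 6.0; NS1-free yeast of the same strain were the positive control.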
Cruzain inh Det: inhibitors of Trypanosoma cruzi cruzain with detergent | Potency, µM, without a hit: max response, negative = inhibition, actives largely listed as inhibitors | P25779 | hit rate 0.43% among 200,000 | purified cruzain, Z-FR-AMC fluorescence, 0.01% Triton | AID 1478;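 also: plate controls were neutral wells for no effect and buffer without enzyme for full effect; nearly all actives have a fitted effect of over 40% in size; top concentration of the series not given in the record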
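Purified cruzain (1.5 nM final) was preincubated with compounds for 15 min at room temperature in 100 mM sodium acetate pH 5.5, 5 mM DTT, 0.01% Triton X-100. Reaction started with 2 uM Z-FR-AMC; AMC fluorescence change over 60 s gave activity.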
Marburg entry inh: inhibitors of Marburg virus binding or cell entry; Marburg virus pseudotyped entry inhibition, cell reporter; control for the full effect not named in the record; about a third of the inactives were read at about 46 µM; AID 540276; Potency, µM (top dose mostly 37.8 µM), inactives show at the highest dose activity change, negative = inhibition, actives largely listed as inhibitors; hit rate 1.8% among 300,000; active = well fitted inhibition curve with a large enough effect; inconclusive = small, poorly fitted or top-dose-only effect, or effect the other way; inactive = flat fitted curve, though single readings scatter; tested in HEK293 cells; about a fifth of its hits are not listed in these tables; also: % is scaled to controls: 0 for no effect and ±100 for the full control effect; luciferase read-out
RE007 growth inh: less growth of the S. pombe RE007 Vpr strain. S. pombe RE007 Vpr strain, BacTiter-Glo ATP luminescence, 24 h; control for the full effect not named in the record. Potency, µM (doses to about 92.2 µM), for inactives: top-dose activity change, negative = less growth. hit rate 0.21% among 360,000. AID 651644; active = well fitted falling curve with a large enough effect; inconclusive = small, poorly fitted or top-dose-only effect; inactive = no such curve, though single readings can be large or run the other way;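 also: % is scaled to controls: 0 for no effect and ±100 for the full control effect; nearly all actives have a fitted effect of over 50% in size; the assay follows cell death caused by Vpr and the record does not say whether a fall means rescue or toxicity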
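Fission yeast strain RE007, carrying one chromosomally integrated HIV-1 vpr copy, was seeded at OD 0.01 in PMG+AL medium with 23 nL pinned compound. After 24 h at 30 °C and 99% humidity, viability was read by BacTiter-Glo luminescence.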
Numbers without * were called inactive; ? = inconclusive; . = no result given; & = joins results of further samples; [ ] = another dose, or the depositor's remark. Unless noted, calls follow the shape of the dose curve; as a rule, active = well fitted curve in the direction sought with a large enough effect; inconclusive = small, poorly fitted or top-dose-only effect, or another doubt; inactive = no such curve, though single readings can be large; an effect the other way counts as inactive or inconclusive. Potency is read from the fitted curve at half-maximal effect.

SMILES	Cruzain inh noDet	SARS PLpro yeast	StopGo reporter	Lassa entry inh	NS1 function inh	Cruzain inh Det	Marburg entry inh	RE007 growth inh
CCN1CCN(C(=S)NC(C)c2ccccc2)CC1 (stereo not given)	-12%	2%	-8%	8%	?	5.7%	?	4%
CCSc1nc(N2CCOCC2)c2c(c1C#N)CCCC2	-8%	-6%	?	0%	-8%	-4.9%	-24%[46.1 µM]	-15%
Nc1ccc2c(c1)C(O)c1cccc(C(=O)O)c1-2 (stereo not given)	.	.	-11%	-3%	.	.	28%	-6%
COc1cc2c(=O)n(CCC(=O)NCC3CCCO3)c(=O)n(CC(=O)Nc3ccccc3C)c2cc1OC (stereo not given)	-2%	-1%	1%&-12%	-9%	-4%	0.4%	9%	8%
O=C(Nc1ccc(Oc2ccccc2)cc1)c1ccc(Cn2c(=O)[nH]c3ccsc3c2=O)cc1	3%	-3%	-31%	0%	-28%	0.7%	-2%	7%
Clc1ccc2scc(CN3CCCCC3)c2c1	-2%	-12%	-17%	-7%	2%	-2.4%	?	-8%
Cc1ccc(C)c(NC(=O)C2CC3c4ccccc4C2c2ccccc23)c1 (stereo not given)	?	-3%	-29%	-2%	5%	8.1%	-16%	12%
Cc1ccc(/C=C2\Sc3ccccc3C2=O)s1	-6%	2%	42%[activator]	24%	-6%	-0.4%	?	-14%
Cc1cc(C)c(C(=O)O)c(CC(C)(C)C(=O)O)c1	.	-1%	-1%	?	-1%	.	-2%[46.1 µM]	12%
O=C(CN1C(=O)COc2ccc(S(=O)(=O)N3CCOCC3)cc21)N1CCN(c2cccc(Cl)c2)CC1	?	.	-8%	-4%[46.1 µM]	.	-1.7%	14%[46.1 µM]	.
COCCn1c(SCC(=O)Nc2ccc(F)cc2)nc2c([nH]c3ccccc32)c1=O	.	-2%	17%	.	7%	.	.	4%
CCOc1c(OC)ccc2c3c(c(=O)oc12)CCCC3	5%	-41%	-10%	0%	-109%	2.1%	2%	-9%
Cc1c(-c2cccc(Cl)c2)nc2ccccc2c1C(=O)NC1CC1	.	0%	-12%	.	1%	.	.	4%
CC(=O)N/N=C(\C)CC(=O)Nc1cccc(C(F)(F)F)c1	.	1%	1%	4%	.	.	1%[46.1 µM]	-9%
CCc1ccc(-c2cc(C(=O)NCc3ccco3)c3ccccc3n2)s1	-8%	-1%	43%[activator]	23%	-13%	22µM*	0%	8%
CCc1ccc(C(=O)NNc2ccc(F)cc2)cc1	.	-2%	31%[activator]	-25%[46.1 µM]	-46%	.	?	132%
N#Cc1c(-c2cccc([N+](=O)[O-])c2)nc2n(c1=O)CCS2	.	9%	-2%	2%	-79%	.	10%	10%
COc1ccc(-c2nc3sc(CCNC(=O)C(=O)Nc4c(C)cccc4C)c(C)n3n2)cc1	2%	.	-9%	?	.	-2.5%	.	.
CCS(=O)(=O)c1ncc(Cl)c(C(=O)Nc2ccc(C)cc2)n1	.	-11%	14µM*	?	-48%	.	7.9µM*	-1%
O=C(COC(=O)/C=C/c1ccccc1[N+](=O)[O-])NC1CC1	.	2%	-5%	-9%	.	.	-17%	-17%
C/C=C(\C)CN1CCN(c2ccc(C)cc2)CC1	10%	-1%	10%	14%	4%	3.0%	-29%	-10%
COc1cc(C2CC(=O)C3=C(C2)Nc2ncnn2C3c2cccs2)cc(OC)c1OC (stereo not given)	.	0%	-10%	-13%[46.1 µM]	1%	.	-4%[46.1 µM]	3%
COc1ccc(C(=O)NCC2CCCO2)cc1S(=O)(=O)N1CCCc2ccccc21 (stereo not given)	.	1%	26%	?	0%	.	?	3%
CC(=O)Nc1ccc(NC(=O)CC(NC(=O)c2ccccc2)c2ccccc2)cc1 (stereo not given)	.	0%	-24%	.	10%	.	.	-6%
O=C(Cc1ccccc1)NCc1n[nH]c(=S)n1-c1ccccc1	.	-2%	-8%	1%	.	.	18%[46.1 µM]	-21%
CC(C(=O)Nc1ccc(F)cc1Cl)N(C)CCOc1ccccc1 (stereo not given)	.	-2%	-22%	?	-4%	.	?	2%
CCOCCCn1c(=NC(=O)c2ccc(OC)c(OC)c2)c(C#N)cc2c(=O)n3cccc(C)c3nc21	16%	1%	.	.	2%	-4.2%	.	.
COC(=O)c1cnn(-c2ccc(C)c(C)c2)c1-n1cccc1	.	-4%	-11%	2%	-48%	.	9%	5%
Cc1csc(NC(=O)CSc2nc3[nH]c(=O)cc(O)c3s2)n1	.	.	-22%	?	.	.	?	-5%
O=C(C=P(c1ccccc1)(c1ccccc1)c1ccccc1)c1ccccc1-c1ccccc1C(=O)C=P(c1ccccc1)(c1ccccc1)c1ccccc1	.	.	20µM*	2.2µM*	.	.	?	21%
CC(C)CCC(C(=O)O)C(C)CC(=O)NC1CCCCC1 (stereo not given)	-1%	3%	26%	?	9%[9.22 µM]	-0.4%	15%	-3%
NC(=O)c1cc2cc(Cc3ccccc3Cl)ccc2oc1=O	.	-1%	6%	?	8%	.	?	13%
Cc1ccsc1C(=O)C1CCCN(Cc2ccc(O)cc2)C1 (stereo not given)	.	-1%	-18%	6%	-1%	.	27%[46.1 µM]	-6%
Cc1cc(C)n(CCn2nc(C)cc2C)n1	-2%	-2%	-4%	-4%	?	4.3%	30%	-1%
Cc1ccc(OCC(=O)NNC(=O)c2ccccc2OCc2c(C)noc2C)cc1	.	.	-13%	-15%[46.1 µM]	.	.	?	14%
COc1cccc(N2C(=O)C3C(C2=O)C3(c2ccccc2)c2ccccc2)c1 (stereo not given)	.	-1%	?	2%	-1%	.	-18%[46.1 µM]	15%
Cc1ccc(C)c(N2CCN(C(=O)CS(=O)(=O)c3cccc4nsnc34)CC2)c1	?	.	?	-21%[46.1 µM]	.	0.6%	.	.
N#Cc1sc2nc(C3CC3)cc(-c3ccc(Cl)cc3)c2c1N	?	-43%	?	?	0%	-11%	?	0%
O=C(NNC1CC(c2ccccc2)=NN1C(=O)c1ccccc1)c1ccccc1 (stereo not given)	.	1%	19%	-27%	.	.	10%	19%
COc1ccc(CCNC(=O)Cn2nc(C)n3c(cc4occc43)c2=O)cc1OC	-12%	.	1%	-18%[46.1 µM]	.	-0.7%	14%[46.1 µM]	.
COc1ccccc1NC(=O)Cn1nnc(C(=O)Nc2ccccc2Br)c1N	?	.	-15%	11%[46.1 µM]	.	-1.6%	.	.
CCc1nn(CC(=O)NCCCN2CCOCC2)c(=O)c2cc3cc(F)ccc3n12	.	3%	4%	16%[46.1 µM]	-7%	.	7%[46.1 µM]	0%
O=c1cc2ncc(-c3[nH]ncc3[N+](=O)[O-])cn2[nH]1	.	1%	-12%	.	?	.	.	11%
CCN(CC)CCCN(C(=O)c1ccccc1F)c1nc(-c2ccc(OC)cc2)cs1	.	8%	3%	?	-17%	.	?	-1%
CCN(Cc1ccccc1)C(=O)COC(=O)c1cnc(C)cn1	.	2%	-2%	.	-2%	.	.	-10%
Cn1nnnc1SCCNCc1cc(Br)ccc1OCc1ccccc1Cl	-4%	.	?	?	.	-7.3%	?	.
COC(=O)c1ccc(CSc2nnc(Nc3ccc(OC)cc3)s2)o1	-3%	-18%	10%	-20%	-8%	-2.5%	-14%	-14%
C[C@@H]1CCC2[C@](C)(CO)[C@@H](O)CC[C@]2(C)[C@@]12CC[C@@](CO)(CC(=O)O)O2 (stereo not given in full)	.	-2%	-13%	.	2%	.	.	-22%
Cc1nnc2sc(SCC(=O)N3CCC(C)CC3)nn2c1=O	.	1%	-6%	26%[46.1 µM]	7%	.	4%[46.1 µM]	-4%
O=C(CN(Cc1ccco1)C(=O)Cn1nnc(-c2cccs2)n1)NCc1ccccc1	-1%	-1%	.	-3%	0%	-0.5%	-2%	3%
CCOc1ncccc1C(=O)Nc1ccc(F)c(Cl)c1	.	0%	10%	.	-4%	.	.	16%
CC(C)C(NCC(=O)Nc1ccccc1C(=O)NC1CC1)c1ccccc1 (stereo not given)	.	?	-16%	-22%[46.1 µM]	.	.	-1%[46.1 µM]	22%
O=C(NC1CCCCCC1)C1c2ccccc2C(=O)N1Cc1ccco1 (stereo not given)	-5%	-11%	7%	-25%	-5%	-4.2%	-11%	-4%
COc1ccc(CNC(=O)C2CCN(C(=O)c3cccc(Cl)c3)CC2)cc1	.	-7%	-20%	-22%	1%	.	-1%	-8%
CCc1nc2cc3sc(CC)nc3cc2s1	.	0%	13%	-8%[46.1 µM]	.	.	?	-5%
CC(=O)N/C(=C/c1ccc(Cl)cc1)C(=O)NCCc1c[nH]c2ccccc12	10%	4%	-13%	0%	3%	-3.3%	1%	-5%
CN(C1CCCCC1)S(=O)(=O)c1ccc(=S)[nH]c1	.	-1%	-15%	-2%	.	.	5%	36%
Cc1nc2sccn2c1-c1csc(NCc2ccccc2)n1	?	-1%	.	-29%	?	-7.1%	?	2%
c1cnc(N2CCNCC2)nc1	.	0%	-27%	.	1%	.	.	1%
CC1(C)Cc2cccc(C(=O)NC3CCN(Cc4ccccc4)CC3)c2O1	.	1%	-24%	3%	3%	.	?	4%

(more compounds)
SMILES	Cruzain inh noDet	SARS PLpro yeast	StopGo reporter	Lassa entry inh	NS1 function inh	Cruzain inh Det	Marburg entry inh	RE007 growth inh
Cc1ccc2c(c1)=NC(=O)/C(=C/c1c(O)[nH]c(=O)[nH]c1=O)C=2	.	1%	-15%	.	-34%	.	.	9%
C#CCOCCOCCOCCNc1nc(N2CCOCC2)nc(N2CCN(C(=O)[C@H]([C@@H](C)CC)n3cc(CCCCN)nn3)CC2)n1	1%	25%	-9%	7%	4%	-7.0%	9%	1%
CNCC/C=C1/c2ccccc2CSc2ccccc21	-5%	-7%	-24%	?	-4%	-0.7%	?	0%
O=C(OCc1cc(=O)n2nc(C3CC3)sc2n1)c1ccc(NC(=O)c2ccccc2F)cc1	-10%	.	-27%	-2%[46.1 µM]	.	-0.8%	.	.
CN(C)CCCNC(=S)Nc1ccc(Br)cc1	.	0%	-5%	.	1%	.	.	-4%
